Screening data as filed in PubChem BioAssay.
eIF4H FP inh: inhibitors of RNA binding by human eIF4H. Q15056. eIF4H fluorescence polarization binding assay. inhibition, % at 35 µM. 290,000 compounds, 0.94% hits. AID 2012;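 active = 50% or more with normal probe brightness, or confirmed in later tests; inconclusive = above 50% with abnormal brightness, or retests that disagree; inactive = below 50% or failed in later tests; about a fifth of its hits are not listed in these tables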;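 note: calls also rest on retests at 20 µM and on dose response follow-up; 0% = protein and probe with vehicle and 100% = probe without protein; strong numbers were not always called active; many hits fall short of the cut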
CSC inhib: cancer stem cell inhibition; cancer stem cell-like cells viability, luminescence; inhibition, % at 7.5 µM; 300,000 compounds, 1.1% hits;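 active = mean at 75% or more and at least half the replicates too; inconclusive = mean and replicates disagree; tested in HMLE shEcad cells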;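 note: 0% = median of negative and 100% = median of positive control wells; the first replicate is given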
PABP polyA inh: PABP-poly(A) binding inhibition; P11940; PABP-poly(A) RNA binding, fluorescence polarization; inhibition, % at 35 µM; 290,000 compounds, 1% hits; AID 2014;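 active = 50% or more with normal probe brightness, or confirmed in later tests; inconclusive = above 50% with abnormal brightness, or retests that disagree; inactive = below 50% or failed in later tests; about a fifth of its hits are not listed in these tables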;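 note: calls also rest on retests at 20 µM and on dose response follow-up; controls were probe without protein and protein plus probe with vehicle; some compounds called inactive have numbers as strong as hits; many hits fall short of the cut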
Target sequence (P11940 whole entry, looked up): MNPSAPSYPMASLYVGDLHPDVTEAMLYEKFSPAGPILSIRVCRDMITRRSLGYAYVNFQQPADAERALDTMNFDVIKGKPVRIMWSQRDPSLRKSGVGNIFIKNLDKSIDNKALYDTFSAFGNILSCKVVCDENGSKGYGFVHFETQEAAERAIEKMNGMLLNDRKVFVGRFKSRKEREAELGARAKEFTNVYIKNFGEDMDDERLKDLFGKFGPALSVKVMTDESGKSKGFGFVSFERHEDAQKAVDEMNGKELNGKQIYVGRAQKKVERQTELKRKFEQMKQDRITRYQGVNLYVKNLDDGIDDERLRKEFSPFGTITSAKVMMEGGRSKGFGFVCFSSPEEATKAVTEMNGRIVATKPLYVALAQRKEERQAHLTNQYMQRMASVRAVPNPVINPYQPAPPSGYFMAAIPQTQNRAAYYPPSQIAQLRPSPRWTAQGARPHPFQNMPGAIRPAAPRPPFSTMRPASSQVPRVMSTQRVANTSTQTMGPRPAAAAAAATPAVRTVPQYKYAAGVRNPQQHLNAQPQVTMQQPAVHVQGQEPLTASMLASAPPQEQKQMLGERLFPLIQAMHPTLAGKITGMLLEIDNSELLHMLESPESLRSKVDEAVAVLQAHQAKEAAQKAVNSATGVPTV
Rce1 inh: yeast Ras-converting enzyme inhibition | yeast membranes, quenched prenylated peptide cleavage fluorescence | calls only | 290,000 compounds, 0.27% hits | AID 2563;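 active = fall in fluorescence gain of 50% or more versus controls, with final raw signal at or below 3038400; inconclusive = same 50% fall but final raw signal above 3038400; inactive = fall in fluorescence gain under 50%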;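 note: plate controls were neutral control wells for no effect and wells lacking membranes for full effect; tested at 10 µM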
Target sequence (Q03530 whole entry, looked up): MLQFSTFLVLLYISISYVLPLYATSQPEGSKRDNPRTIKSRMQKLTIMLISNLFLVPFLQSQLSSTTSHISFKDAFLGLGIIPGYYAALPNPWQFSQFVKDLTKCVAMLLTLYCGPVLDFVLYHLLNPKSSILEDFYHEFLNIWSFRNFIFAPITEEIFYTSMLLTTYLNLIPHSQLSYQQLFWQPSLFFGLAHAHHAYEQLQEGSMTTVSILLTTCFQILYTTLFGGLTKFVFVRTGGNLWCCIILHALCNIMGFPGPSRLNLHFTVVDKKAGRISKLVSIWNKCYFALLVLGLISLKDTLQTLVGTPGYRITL
UUG fidelity: modulators of start codon recognition fidelity in yeast; S. cerevisiae UUG-firefly luciferase reporter, luminescence/redox ratio; activity score, % at 18.7 µM; 350,000 compounds, 0.13% hits; AID 602363;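 active = replicate mean at a twofold rise or more, about +100% in these data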;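 note: firefly luciferase made from a UUG start codon reports start codon fidelity; reporter light over untreated wells divided by growth signal over untreated wells; some hits fall short of that in this replicate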
MT1-MMP act inh: inhibitors of human MT1-MMP activation; 360,000 compounds, 0.061% hits; AID 651647; P50281; HT1080 RFP-PRO-GFP cells, GFP/RFP ratio fluorescence, overnight; percent of plate control window, DMSO zero; GFP/RFP ratio change, % at 20 µM;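 active = GFP/RFP ratio change of at least 30% with cell ATP level not reduced by more than half and red fluorescence within 50% of control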; note: strong numbers were not always called active
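Test system: HT1080 RFP-PRO-GFP cells; Benchmarks: DMSO and RFP-L50D-GFP cell wells; Timing: cells overnight before dosing, compound overnight, 37 °C, 5% CO2; Compound: one 20 µM compound dose with 1% DMSO; Read-out: GFP/RFP fluorescence ratio.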
Env fusion inh: HIV envelope-mediated fusion inhibition; HeLa-JRFL Env/CEM21 cell fusion, luciferase; inhibition, % at 12.3 µM; 360,000 compounds, 1.1% hits; AID 651610;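 active = mean replicate inhibition score of at least 50 and every replicate individually at or above 50; inconclusive = only one of the two criteria met; inactive = mean below 50 and not all replicates reaching 50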;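 note: 0% = plate neutral controls and 100% = maraviroc near 300 nM; one replicate is shown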
eIF4H FP inh retest: recorded beside eIF4H FP inh, whose call it bears; inhibition, %; compound at 20 µM; confirmation average;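 mean of two retest wells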
PABP polyA inh retest: further read-out of PABP polyA inh, marked with its call; inhibition, %; compound at 20 µM; confirmation repeats;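 mean of two retest wells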
MT1-MMP act inh RFP: second read-out of MT1-MMP act inh, no call of its own (marks repeat the call); RFP signal change, %; measured here: RFP expression control read;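 0 = vehicle wells; hits needed this value within 50% of zero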
An asterisk follows results filed as active; i = inactive; ? = inconclusive; / = no result given.

SMILES	eIF4H FP inh	CSC inhib	PABP polyA inh	Rce1 inh	UUG fidelity	MT1-MMP act inh	MT1-MMP act inh RFP	Env fusion inh	others
Cc1cc(N2CCCC2)nc2ccccc12	-8	-1	2	i	/	3	5	-6
COc1ccc(C2C(C#N)=C(N)Oc3n[nH]c(C)c32)cc1CSc1ccccn1 (stereo not drawn)	9	-3	0	i	-22	-1	-3	/
Cc1ccc(S(=O)(=O)n2nc(C)c(S(=O)(=O)N3CCOCC3)c2C)cc1	-2	-20	8	i	-2	-1	2	6
O=c1c2ccccc2nc2sc(Nc3cccc(Cl)c3)nn12	/	-9	/	/	-7	3	0	-43
COc1ccc(NC(=O)CSc2nc3ccncc3[nH]2)c(OC)c1	-12	-1	2	i	-20	1	-8	-3
CCn1cc(C(=O)N(C)Cc2ccc(OC(F)F)cc2)c(=O)c2ccc(C)nc21	-9	-20	3	i	12	-1	1	11
Cc1cc(C(=O)Cn2nnc(-c3ccc(Cl)cc3)n2)c(C)n1CC1CCCO1 (stereo not drawn)	/	/	/	i	-7	-6	-18	/
O=C(Nc1nc2ccccc2[nH]1)C1CCCO1 (stereo not drawn)	-5	-2	0	i	-12	-3	0	/
COc1ccc(/C=N/Nc2ccc([N+](=O)[O-])cc2)cc1Cn1cc([N+](=O)[O-])cn1	-9	6	-12	i	-12	6	2	/
Clc1ccccc1-c1nc(-c2cccnc2)no1	-2	-2	5	i	-10	-5	-6	/
N#Cc1ccccc1COC(=O)CCN=C1NS(=O)(=O)c2ccccc21	/	-15	/	/	-4	5	-1	-4
O=C(NC1CCCC1)C(c1ccc(F)cc1)N(C(=O)c1csnn1)C1CCCC1 (stereo not drawn)	11	-12	12	i	3	-3	1	13
CCn1c(SCC(=O)Nc2cc(C)c(Cl)cc2OC)nnc1-c1ccco1	-11	-9	4	i	-10	-2	-1	/
N#CCSc1ccccc1NC(=O)CN1C(=O)C(=O)N(Cc2ccccc2)C1=O	/	-15	/	/	/	-12	4	5
CC1=NNC(=O)C1C(c1ccccc1)C(C#N)C#N (stereo not drawn)	-4	2	-4	i	-25	-1	4	-9
COc1cccc(/C=N/Nc2ccc(C(=O)O)cc2)c1O	-6	25	0	/	/	-1	0	86*
CCCSCCCNC(=O)Cn1nc(CC)n2c(cc3c(OC)cccc32)c1=O	5	-18	11	i	-9	-4	-5	19
O=C(NCc1ccccc1F)C1CCCN1C(=O)NCc1ccccc1 (stereo not drawn)	-2	-11	-10	i	-8	1	2	16
O=C1NC(=S)SC1=C1CCCCCC1	-15	-5	10	i	-3	-2	1	/
CCOC(=O)N1CCC(NC(=O)CS(=O)Cc2nc(-c3ccc(C)cc3)oc2C)CC1 (stereo not drawn)	-11	-6	-1	i	-10	2	-2	12
CCOC(=O)c1c(C)[nH]c(C(=O)COC(=O)c2c(CC)noc2C)c1C	/	/	/	/	-1	-4	-7	14
COc1ccccc1N1CCN(C(=O)Cn2ncc3c([nH]c4ccccc43)c2=O)CC1	3	-5	9	i	-9	3	-5	-4
Cn1c2c(c(=O)n(C)c1=O)CN(Cc1ccco1)CN2	-3	/	1	i	-4	-3	6	/
CC(C)CN(C(=O)COC(=O)CCc1nc2ccccc2s1)c1c(N)n(Cc2ccccc2)c(=O)[nH]c1=O	/	-7	/	i	-10	1	1	5
O=C(CSc1nc2ccccc2o1)Nc1ccccc1N1CCOCC1	-12	18	-10	i	-6	1	-2	/
COc1cccc(-c2nc(CS(=O)(=O)CC(=O)Nc3ccccc3Cl)c(C)o2)c1	-14	-11	-3	i	-20	-1	-7	8
CCOCCCNC(=O)CCc1ccc(S(=O)(=O)Nc2ccc(C)cc2)cc1	-2	-8	-12	i	-1	-1	0	29
NC(=O)CC[C@H](NC(=O)c1ccc(F)cc1)C(=O)OCC(=O)Nc1c(F)c(F)c(F)c(F)c1F	2	14	-6	i	-13	22	10	/
CN(C)C(CNC(=O)c1cccc(S(=O)(=O)N2CCN(c3ccc(F)cc3)CC2)c1)c1ccccc1 (stereo not drawn)	/	/	/	/	-8	-6	-11	2
c1coc(-c2nnc3sc(-c4cccs4)nn23)c1	7	-3	11	/	-10	2	2	-103
O=C(NCc1cccc(C(F)(F)F)c1)c1c[nH]c(=O)s1	/	/	/	/	-20	-2	-1	-19
Cc1cccc(-n2c(=O)[nH]c3c(C(N)=O)nc(CC(C)C)nc32)c1	5	3	5	i	-15	-3	0	/
COc1ccc(CN(CC(O)COCc2ccccc2)S(=O)(=O)c2ccccc2Br)cc1OC (stereo not drawn)	/	/	/	/	-16	-2	-9	-71
CCOCCCN(C(=O)c1ccco1)C(C(=O)NC1CCCC1)c1ccc(OC)cc1 (stereo not drawn)	10	/	8	i	-11	1	3	18
CN(c1ccccc1)S(=O)(=O)c1cccc(NC(=O)CSc2nnc(N)s2)c1	2	-9	0	i	-8	0	-11	16
O=C(/C=C/c1ccco1)Nc1nc(-c2ccccn2)cs1	88	-12	-19	i	/	0	2	-2	eIF4H FP inh retest=8;PABP polyA inh retest=10
Cc1cc(N/N=C/c2ccc(O)cc2O)nc(-c2ccccc2O)n1	0	99*	7	i	-24	-4	-10	/
CCN(c1ccccc1C)S(=O)(=O)c1cc2c3c(c1)CCC(=O)N3CCC2	/	-17	/	i	15	-2	-2	11
COc1ccccc1NC(=O)c1cc2c(CO)cnc(C)c2oc1=Nc1ccc(OC)c(OC)c1	-3	16	7	i	4	3	0	8
COCCNC(=S)N1CCN(C(c2ccccc2)c2ccccc2)CC1	1	-16	-10	i	-13	-2	1	6
COc1ccc(NC(=O)CCN2C(=O)c3ccc([N+](=O)[O-])cc3C2=O)c(OC)c1	4	-23	13	i	3	1	3	/
Cn1c(SCC(=O)Nc2cccc(S(=O)(=O)NC3=NCCCCC3)c2)nnc1-c1ccncc1	-3	15	-4	i	/	0	7	14
CC(Sc1nc2ccccc2c(=O)n1CCc1ccc(S(N)(=O)=O)cc1)C(=O)NC(N)=O (stereo not drawn)	6	-12	9	i	-32	1	3	-3
CCCc1c(C(=O)Nc2ccc(F)cc2C)cnn1-c1ccccc1	-5	-2	-5	i	-14	-2	-10	20
CN(C)S(=O)(=O)c1ccc2oc(SCC(=O)c3c(N)n(C4CC4)c(=O)[nH]c3=O)nc2c1	/	-4	/	/	-12	-1	-18	-6
CCc1nc2sc3ccccc3c(=O)c2c(=O)n1Cc1ccc(OC)cc1	-7	-3	2	i	0	2	-8	25
Cc1ccccc1OCc1occc1C(=O)Nc1cccc(-n2cnnn2)c1	-16	54	-9	i	-17	-3	-9	28
COC(=O)Cn1c(=O)c2c(nc3n2CC(C)CN3CCc2ccccc2)n(C)c1=O (stereo not drawn)	12	/	7	i	-4	3	0	23
COc1ccc(CNC(=O)CCc2nc(-c3ccccc3F)no2)c(OC)c1	-7	-8	-2	i	-5	5	0	/
Cc1cccc(OCC(=O)NNC(=O)CCCCC(=O)NNC(=O)COc2cccc(C)c2)c1	1	14	7	i	-12	-2	1	15
O=C1c2ccccc2C(=O)N1CCCOc1ccccc1	0	-4	-1	i	-3	7	-2	/
C=C(C)COc1ccc(-c2[nH]ncc2-c2ccc(OC)cc2)c(O)c1	-7	?	8	i	/	-8	-12	23
COc1ccc(C2CC(C(F)(F)F)n3nc(C(=O)O)cc3N2)cc1OC (stereo not drawn)	-4	-5	-4	i	-21	3	7	-42
COc1ccc(OC)c2c(C)cc(N3CCN(C(=O)c4ccc(F)cc4)CC3)nc12	-4	-7	-1	i	20	1	-8	/
Cc1ccc(-n2ncc3c2CCCC3NC(=O)CCc2cnccn2)cc1C (stereo not drawn)	-5	-3	-3	i	-13	1	-9	4
CCN(c1ccccc1)S(=O)(=O)c1cccc(C(=O)Nc2cccc(C)n2)c1	/	/	/	/	-6	2	-6	-22
O=S(=O)(c1ccc2c(c1)OCCO2)N1CCC(n2nnc3cc(C(F)(F)F)ccc32)CC1	-8	-3	0	i	-1	0	-10	-15
Cc1nc(N2CCN(C(=O)c3cnccn3)CC2)c2c3c(sc2n1)CC(C(C)(C)C)CC3 (stereo not drawn)	2	/	13	i	-10	-2	-5	-12
Cn1c(=O)n(C)c2cc(NC(=O)COc3ccc(F)cc3)ccc21	-3	2	-1	i	-19	12	1	-11
Cc1c(Cl)cccc1NC(=S)NCCN1CCOCC1	5	-4	-3	i	/	3	4	16
(further entries)
SMILES	eIF4H FP inh	CSC inhib	PABP polyA inh	Rce1 inh	UUG fidelity	MT1-MMP act inh	MT1-MMP act inh RFP	Env fusion inh	others
CSc1ccccc1NC(=S)Nc1cc(C)cc(C)c1	5	/	-1	i	-25	-2	2	2
Cc1ccc(C(C)n2cc(C(=O)NCc3ccncc3)nn2)cc1 (stereo not drawn)	7	-4	-4	i	-8	-1	1	/
O=C(c1ccc([N+](=O)[O-])o1)N1CCN(Cc2ccccc2)CC1	-3	-14	-1	i	-30	15	0	-12
CCOCCN(C(=O)c1ccccc1Cl)c1ccccc1	7	-5	-11	i	/	-3	0	-22
CCOCC(=O)Nc1c(C(=O)OCC)oc2ccccc12	-8	/	-7	i	-11	-3	0	-15
CC12CC3CC(C)(C1)CC(C(=O)NNC(=O)c1ccncc1)(C3)C2	-3	0	1	i	-10	-2	5	-43
COc1ccc(CCN2C(=O)N(c3ccc(OC)cc3)C(=O)C2CC(=O)Nc2ccc(OC)cc2)cc1 (stereo not drawn)	-1	-7	11	i	1	10	1	9
CC(=O)Nc1ccc(S(=O)(=O)Nc2nc3ccccc3nc2Cl)cc1	3	-12	6	i	/	3	1	-4
O=[N+]([O-])c1cccc(C(=S)N2CCN(c3ccc(F)cc3)CC2)c1	3	3	6	i	10	6	1	-5
COc1cc(C=O)ccc1OC(=O)c1cccnc1	-3	/	10	i	0	0	4	3
COc1cccc(C(O)c2nc(-c3ccccc3OC)cs2)c1 (stereo not drawn)	/	/	/	/	-21	2	0	-10
Cc1cc(C)c(C)c(SCC(=O)Nc2oc(C)c3c(C)n[nH]c(=O)c23)c1C	/	-9	/	i	21	3	-6	-72
O=C(NC1CCCc2c1cnn2-c1cc(F)cc(F)c1)c1ccc[n+]([O-])c1 (stereo not drawn)	10	-19	3	i	-13	1	4	/
Fc1cnc(N2CCOCC2)nc1N1CCOCC1	-2	-2	-8	i	/	-1	0	1
CC(Oc1ccccc1)C(=O)OCC(=O)NC(=O)NCc1ccco1 (stereo not drawn)	-5	-5	1	i	-4	-2	-1	/
O=C(CCS(=O)(=O)Cc1ccccc1)Nc1nnc(C(F)(F)F)s1	-6	/	-2	i	7	4	2	7
Cc1csc(N2CCN(c3cc4c(cc3Cl)nc(-c3ccncc3)n4CCCN3CCCC3)CC2)n1	-3	22	-14	i	50	-1	0	/
Cc1ccc(C(=O)N2CCNC(=O)C2CC(=O)Nc2ccc(F)cc2)cc1C (stereo not drawn)	-14	8	0	i	-3	-4	1	1
Cc1cc(C)c2nc(N3CCCC(C(=O)N4CCC(C(N)=O)CC4)C3)sc2c1 (stereo not drawn)	-8	-11	-13	i	-13	1	-2	/

Not a hit list; overall some 3% were active at least once.
